Screening results as filed in PubChem.
Six1-Eya2 inh: inhibitors of human Six1/Eya2 interaction. actives 0.56% (n = 360,000). activity change, % (no concentration beside the values). Q15475+O00167. AlphaScreen GST-Six1/His-Eya2 binding, biochemical; active compounds read low; control for the full effect not named in the record; in the data active = activity change below about -65%; inconclusive = about -30% to -65%; inactive = above about -30%; note: % is set by controls: 0 for no effect and ±100 for the full control effect
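AlphaScreen luminescence read after one hour at 37 °C in darkness. Pin-transferred compounds met GST-Six1 and His-Eya2 protein (5X stock 250 nM/500 nM) plus glutathione donor and Ni-chelate acceptor beads (5X, 50 ug/mL).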
PINK1 modulator: modulators of PINK1 expression; PINK1 immunofluorescence, high-content cytometry, 24 h; Potency, µM (doses to about 76.6 µM), inactives show top-dose activation (PINK1 increase), actives largely listed as activators; actives 0.2% (n = 410,000); AID 624263; active = well fitted activation curve with a large enough effect; inconclusive = small, poorly fitted or top-dose-only effect; inactive = flat fitted curve, though single readings scatter; cell line not stated here;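 note: potency is the fitted concentration of half-maximal effect; % of control where 0% means no effect; nearly all actives have a fitted effect of over 65% in size; a mitochondrial uncoupler was the plate control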
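Fluorescence from anti-PINK1 antibody, together with nuclear and cell stains, was scanned on a laser-scanning cytometer. Before staining, stable-line cells were incubated 24 hours with compounds at 5 concentrations; primary antibody 12 h at 10 degrees C.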
TRPML1 ag: activates the human TRPML1 channel; AID 624414; actives 0.12% (n = 410,000); TRPML1-expressing cells, Ca2+ dye fluorescence, FDSS; host cell line not named in the record; reference of the full effect not given here; activation, % (no concentration beside the values); Q9GZU1; in the data active = activation above about 50%; inconclusive = about 30% to 50%; inactive = below about 30%; note: 0% is about no effect; the text of the record puts the active cut at 80%
Target sequence (Q9GZU1 whole entry, looked up): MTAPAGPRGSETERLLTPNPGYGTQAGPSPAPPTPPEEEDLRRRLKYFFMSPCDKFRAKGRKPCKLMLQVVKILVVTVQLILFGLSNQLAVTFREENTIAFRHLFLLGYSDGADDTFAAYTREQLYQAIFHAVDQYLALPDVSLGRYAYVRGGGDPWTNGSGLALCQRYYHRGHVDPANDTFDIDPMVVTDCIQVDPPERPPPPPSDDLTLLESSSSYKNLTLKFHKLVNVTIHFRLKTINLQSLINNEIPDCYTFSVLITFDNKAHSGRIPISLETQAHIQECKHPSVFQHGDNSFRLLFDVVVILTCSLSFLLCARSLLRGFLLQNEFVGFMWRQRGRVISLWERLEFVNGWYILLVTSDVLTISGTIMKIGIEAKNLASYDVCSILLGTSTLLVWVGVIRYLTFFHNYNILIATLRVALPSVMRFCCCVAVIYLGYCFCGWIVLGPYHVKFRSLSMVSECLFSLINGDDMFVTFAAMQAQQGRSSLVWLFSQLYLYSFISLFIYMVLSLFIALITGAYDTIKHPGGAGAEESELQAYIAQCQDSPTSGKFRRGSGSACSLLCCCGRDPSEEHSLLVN
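In this qHTS format, compounds were pin-transferred onto Ca8-dye-loaded TRPML1-DL cells induced with Tet overnight, and intracellular Ca2+ fluorescence was recorded kinetically for 110 s after a 10 s baseline. A subsequent 4uM final 54-4 (EC80) addition followed by a second 110 s read served as the antagonist phase.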
D2 agonist: agonists of human D2 dopamine receptor (beta-arrestin); P14416; DiscoveRx PathHunter D2 beta-arrestin, luminescence, 90 min; 100% = 57 uM dopamine signal; activation, % (test concentration not listed); actives 0.084% (n = 360,000); in the data active = activation above about 40%; inconclusive = about 15% to 40%; inactive = below about 15%; note: compound concentration not given in the record; the text of the record calls up to 30% inactive
Target sequence (P14416 whole entry, looked up): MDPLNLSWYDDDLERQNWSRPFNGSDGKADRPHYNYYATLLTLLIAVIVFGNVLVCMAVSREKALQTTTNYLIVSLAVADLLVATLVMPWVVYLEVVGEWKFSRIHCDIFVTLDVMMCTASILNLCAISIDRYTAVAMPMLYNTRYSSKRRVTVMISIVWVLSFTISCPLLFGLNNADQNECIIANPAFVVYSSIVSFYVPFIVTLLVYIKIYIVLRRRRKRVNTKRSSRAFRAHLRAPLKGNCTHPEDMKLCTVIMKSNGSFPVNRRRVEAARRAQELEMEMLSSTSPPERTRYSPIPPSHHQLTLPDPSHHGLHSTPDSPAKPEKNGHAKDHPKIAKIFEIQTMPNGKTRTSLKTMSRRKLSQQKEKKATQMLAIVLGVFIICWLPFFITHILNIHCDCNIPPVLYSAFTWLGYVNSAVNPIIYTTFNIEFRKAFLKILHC
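DiscoveRx PathHunter D2 beta-arrestin cells (2,100/well) attached overnight, then compound-stimulated 90 min at 37 C in HBSS/10 mM HEPES/0.1% Tween-20 buffer; beta-galactosidase complementation read by luminescence after 1 h at ambient temperature. Dopamine 57 uM final (EC100) as control.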
D2 PAM: human D2 receptor positive allosteric modulation; P14416; potentiation, % (test concentration not listed); DiscoveRx D2 beta-arrestin cells, luminescence, 90 min; 100% = 57 uM dopamine signal; actives 0.23% (n = 360,000); active = potentiation of 50% or more; inconclusive = 30% to 50%; inactive = 30% or less;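 note: compound concentration not given in the record; tested on top of an EC20 dose of dopamine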
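D2 cells co-treated with compound plus 50 nM dopamine (EC20) for 90 min at 37 deg C to detect potentiation. Beta-arrestin recruitment was read as enzyme-fragment luminescence after 1 h at ambient temperature. Full response was set by 57 uM dopamine.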
TRPML1 inh: human mucolipin-1 channel inhibition; activity change, negative = inhibition, % (test concentration not listed); TRPML1-inducible cells, Ca2+ dye fluorescence, FDSS; active compounds read low; inhibition of EC80 agonist-evoked calcium signal; Q9GZU1; actives 0.02% (n = 390,000); AID 624415; in the data active means activity change below about -50%; inconclusive means about -30% to -50%; inactive means above about -30%;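 note: stimulus is agonist 54-4 at its EC80 concentration; % is set by controls: 0 for no effect and ±100 for the full control effect; compound concentration not given in the record; the text of the record puts the active cut at -80%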
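Tet-induced TRPML1-DL cells loaded with Ca8 no-wash calcium dye were read kinetically on FDSS. Compound addition was followed by EC80 agonist 54-4 (4 uM final); inhibition was read over 110 s.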
* marks the source's active call; other numbers are inactive results; & = joins results of further samples. Compounds were not picked by outcome; about 1% have a hit in one of these screens.

CCOC(=O)Cn1c2ccc(OC)cc2c2nc3ccccc3nc21 was read as Six1-Eya2 inh 8, PINK1 modulator 3.2%, TRPML1 ag -0.5, D2 agonist -1.9, D2 PAM -12 and TRPML1 inh 2.
O=C(Cn1c2ccccc2c2nc3n(c(=O)c21)CCS3)Nc1ccccc1 was read as Six1-Eya2 inh 4, PINK1 modulator 3.8%, TRPML1 ag 0.9, D2 agonist 2.8, D2 PAM -3 and TRPML1 inh -1.
For C=CC[C@@H](Cc1ccc(F)cc1)C(=O)OC[C@H]1CCCN1C(=O)[C@@H](CC=C)CC(=O)N[C@@H](CO)Cc1ccccc1 the results were Six1-Eya2 inh -1, PINK1 modulator 29%, TRPML1 ag -0.6, D2 agonist -1.2 and TRPML1 inh -6.
For Cc1cccc(C(=O)Nc2nnc(-c3cccnc3)o2)c1 the results were Six1-Eya2 inh -27, PINK1 modulator 0.0%, TRPML1 ag 1.5, D2 agonist 0.9, D2 PAM -3 and TRPML1 inh 10.
`COc1cc2oc(=O)c(Br)c(C)c2c(OC)c1OC` gave Six1-Eya2 inh -13, PINK1 modulator 2.4%, TRPML1 ag 1.6, D2 agonist -1.2, D2 PAM -2 and TRPML1 inh -2.
`COc1ccccc1NC(=O)COc1ccc(/C=N/NC(=O)c2cccnc2)cc1` gave Six1-Eya2 inh -1, PINK1 modulator -0.6%, TRPML1 ag 0.8, D2 agonist 1.2, D2 PAM 8 and TRPML1 inh 6.
O=C(N/C(=C\c1cccs1)C(=O)N1CCOCC1)c1ccco1 was read as Six1-Eya2 inh 3, PINK1 modulator -0.9%, TRPML1 ag 1.5, D2 agonist -4.2, D2 PAM -5 and TRPML1 inh 34.
For Cc1ccc(C)c(OC(C)C(=O)Nc2nccs2)c1 (configuration not stated) the results were Six1-Eya2 inh 18, PINK1 modulator 1.9%, TRPML1 ag 0.9, D2 agonist -4.2, D2 PAM 11 and TRPML1 inh 19.
O=C(O)CCn1c(-c2ccccc2)cc2ccccc21 was read as Six1-Eya2 inh 9, PINK1 modulator -0.6%, TRPML1 ag -1.0, D2 agonist 0.3, D2 PAM -5 and TRPML1 inh inconclusive.
`Cc1ccc(Nc2c(-c3ccsc3)nc3c(C)cccn23)cc1` gave PINK1 modulator 0.2%&1.1%, TRPML1 ag -1.1&4.1 and TRPML1 inh 38.
`Cc1ccc(CNC(=O)CCN2C(=O)C(C)Oc3ccc(C)cc32)cc1` (configuration not stated) gave PINK1 modulator 0.9%, TRPML1 ag 0.0 and TRPML1 inh 1.
Screening C[C@@H]1CN([C@@H](C)CO)C(=O)c2c(c3ccccc3n2C)-c2ccccc2CO[C@H]1CN(C)C(=O)[C@H](Cc1ccccc1)N(C)C returned Six1-Eya2 inh 1, PINK1 modulator 10%, TRPML1 ag 1.0, D2 agonist -4.9, D2 PAM 3 and TRPML1 inh -6.
COc1cc(C)cc2c1OC(c1ccccc1)CC2=O (configuration not stated) was read as Six1-Eya2 inh 2, PINK1 modulator 0.7%, TRPML1 ag 3.1, D2 agonist -3.6, D2 PAM -4 and TRPML1 inh -10.
`C[C@H](CO)N1C[C@H](C)[C@H](CN(C)C(=O)c2ccccn2)Oc2ncc(Br)cc2C1=O` gave Six1-Eya2 inh -1, PINK1 modulator 0.3%, TRPML1 ag -0.4, D2 agonist -8.7, D2 PAM 1 and TRPML1 inh -7.
`COC(=O)c1ccccc1NCc1cc(=O)oc2cc(O)c(O)cc12` gave Six1-Eya2 inh 34, PINK1 modulator -0.6%, TRPML1 ag 4.1, D2 agonist 0.7, D2 PAM 3 and TRPML1 inh -10.
`COc1ccc(C(=O)c2cn(CC(=O)Nc3ccc4c(c3)OCCO4)c3ccc(OC)cc3c2=O)cc1` gave PINK1 modulator 2.7%, TRPML1 ag -0.6 and TRPML1 inh 4.
Cc1ccc(C)c(S(=O)(=O)Nc2ccccc2C(=O)Nc2ccc(S(=O)(=O)Nc3ncccn3)cc2)c1 was read as Six1-Eya2 inh -21, PINK1 modulator 3.0%, TRPML1 ag -0.5, D2 agonist 1.6, D2 PAM 2 and TRPML1 inh -8.
`COc1ccccc1CNS(=O)(=O)CCNC1CCCCC1` gave Six1-Eya2 inh 2, PINK1 modulator 1.0%, TRPML1 ag -0.2, D2 agonist -1.3, D2 PAM -17 and TRPML1 inh 11.
`COc1ccc(C)cc1NC(=O)C1CCCN(S(=O)(=O)c2cccs2)C1` (configuration not stated) gave Six1-Eya2 inh -2, PINK1 modulator -2.8%, TRPML1 ag 0.0, D2 agonist 3.5, D2 PAM -3 and TRPML1 inh -2.
Screening CN(C)C(=O)c1ccc(NC(=O)COC(=O)Cn2cc(C(F)(F)F)ccc2=O)cc1 returned Six1-Eya2 inh 4, PINK1 modulator -0.5%, TRPML1 ag -0.3, D2 agonist 1.7, D2 PAM -2 and TRPML1 inh 6.

Of the compounds above, these contain bromine:
`COc1cc2oc(=O)c(Br)c(C)c2c(OC)c1OC` gave Six1-Eya2 inh -13, PINK1 modulator 2.4%, TRPML1 ag 1.6, D2 agonist -1.2, D2 PAM -2 and TRPML1 inh -2.
`C[C@H](CO)N1C[C@H](C)[C@H](CN(C)C(=O)c2ccccn2)Oc2ncc(Br)cc2C1=O` gave Six1-Eya2 inh -1, PINK1 modulator 0.3%, TRPML1 ag -0.4, D2 agonist -8.7, D2 PAM 1 and TRPML1 inh -7.

New compounds follow
`COc1ccc(Cn2ccc3nc(C)c(C(=O)Nc4ccc(OC(F)(F)F)cc4)cc3c2=O)cc1` gave PINK1 modulator 5.6%, TRPML1 ag 0.5 and TRPML1 inh 17.
Screening Cc1cc(C)cc(NS(=O)(=O)c2ccc3c(c2)OCC(C(=O)N2CCCC2)O3)c1 (configuration not stated) returned PINK1 modulator 0.9%, TRPML1 ag 0.8 and TRPML1 inh -8.
`CC(C)(C)CC(=O)Nc1nnc(CCc2ccccc2)s1` gave Six1-Eya2 inh 2, PINK1 modulator -0.1%, TRPML1 ag 1.0, D2 agonist -0.1, D2 PAM -9 and TRPML1 inh 5.
COC(=O)c1cnc(Oc2ccc(NC(=O)NC(=O)c3c(OC)cccc3OC)cc2)cc1C(F)(F)F was read as Six1-Eya2 inh 4, PINK1 modulator 4.2%, TRPML1 ag 1.2, D2 agonist -0.8, D2 PAM -5 and TRPML1 inh 0.
`COc1ccccc1CNS(=O)(=O)c1ccc(C)cc1` gave Six1-Eya2 inh 9, PINK1 modulator 2.2%, TRPML1 ag 5.2, D2 agonist -0.9, D2 PAM -17 and TRPML1 inh -8.
Cc1ccccc1-c1ccc2c(c1)O[C@@H](CN(C)C(=O)Nc1ccc(C(F)(F)F)cc1)[C@H](C)CN([C@@H](C)CO)S2(=O)=O was read as Six1-Eya2 inh -23, PINK1 modulator 1.5%, TRPML1 ag 1.6, D2 agonist -6.6, D2 PAM -4 and TRPML1 inh -3.
Screening Cc1ccc(C)c(NC(=O)C(Cc2ccccc2)n2cccc2)c1 (configuration not stated) returned PINK1 modulator 0.9%, TRPML1 ag 1.9 and TRPML1 inh -10.
For CCn1cc2nc(SCC(=O)Nc3ccc(OC)cc3OC)n(Cc3ccc(Cl)cc3)c(=O)c2n1 the results were PINK1 modulator -0.2%, TRPML1 ag -0.4 and TRPML1 inh 12.
`Cc1cc(C)cc(OCC(=O)NNC(=O)C2CCCO2)c1` (configuration not stated) gave Six1-Eya2 inh 13, PINK1 modulator 2.4%, TRPML1 ag 0.7, D2 agonist -1.1, D2 PAM -8 and TRPML1 inh -13.
`Cc1nonc1C(=O)N/N=C/c1ccc(O)cc1O` gave Six1-Eya2 inh -90*, PINK1 modulator 0.7%, TRPML1 ag 0.7, D2 agonist 3.0, D2 PAM 1 and TRPML1 inh 13.
CCCCn1c(N)c(N(Cc2ccccc2OC)C(=O)c2ccc([N+](=O)[O-])s2)c(=O)[nH]c1=O was read as Six1-Eya2 inh -2, PINK1 modulator -3.8%, TRPML1 ag 1.1, D2 agonist inconclusive, D2 PAM 50* and TRPML1 inh -4.
For CNC[C@H](NC[C@@H](NCCCc1ccccc1)c1ccccc1)[C@H](C)O the results were Six1-Eya2 inh 4, PINK1 modulator 2.1%, TRPML1 ag -0.5, D2 agonist -0.9, D2 PAM -3 and TRPML1 inh 16.
For O=C(COC(=O)Cn1cnc2ccccc2c1=O)NCc1ccccc1 the results were Six1-Eya2 inh -2, PINK1 modulator 5.7%, TRPML1 ag -0.5, D2 agonist -5.4, D2 PAM -4 and TRPML1 inh 15.
`COc1ccc(CCNC(=O)c2ccccc2Cl)cc1OC` gave Six1-Eya2 inh -7, PINK1 modulator 0.0%, TRPML1 ag 1.7, D2 agonist -0.7, D2 PAM -6 and TRPML1 inh inconclusive.
Cc1ccc(-n2c(/C=C/c3c(C)n(C)c4ccccc34)nc3ccccc3c2=O)cc1 was read as PINK1 modulator 12%, TRPML1 ag -0.5 and TRPML1 inh 1.
`COc1ccc2[nH]c(=O)c(CN(C(=O)NC3CCCCC3)C3CCCCC3)cc2c1` gave Six1-Eya2 inh 6, PINK1 modulator -3.4%, TRPML1 ag 3.2, D2 agonist 0.4, D2 PAM -3 and TRPML1 inh 11.
For CC(=O)c1cnc(Nc2nc(C)c3cc(C)c(C)cc3n2)nc1C the results were Six1-Eya2 inh -2, PINK1 modulator -0.9%, TRPML1 ag -0.5, D2 agonist -1.3, D2 PAM -4 and TRPML1 inh 5.
Screening CCOC(=O)c1ccc(NC(=O)CCN2C(=O)C3CC=CCC3C2=O)cc1 (configuration not stated) returned Six1-Eya2 inh -8, PINK1 modulator 0.7%, TRPML1 ag 0.2, D2 agonist -1.9, D2 PAM -5 and TRPML1 inh 4.
`Cc1cc(N/N=C/c2ccccc2[N+](=O)[O-])nc(-n2nc(C)cc2C)n1` gave Six1-Eya2 inh -13, PINK1 modulator 0.2%, TRPML1 ag 0.1, D2 agonist -6.2, D2 PAM 0 and TRPML1 inh -4.
Screening CCOC(=O)CNC(=O)CSc1ncnc2c1cnn2Cc1ccccc1 returned Six1-Eya2 inh 2, PINK1 modulator 1.6%, TRPML1 ag -0.9, D2 agonist -2.9, D2 PAM 18 and TRPML1 inh 3.

Some of these compounds in order of molar mass, smallest number first:
For CC(=O)c1cnc(Nc2nc(C)c3cc(C)c(C)cc3n2)nc1C the results were Six1-Eya2 inh -2, PINK1 modulator -0.9%, TRPML1 ag -0.5, D2 agonist -1.3, D2 PAM -4 and TRPML1 inh 5.
CCOC(=O)Cn1c2ccc(OC)cc2c2nc3ccccc3nc21 was read as Six1-Eya2 inh 8, PINK1 modulator 3.2%, TRPML1 ag -0.5, D2 agonist -1.9, D2 PAM -12 and TRPML1 inh 2.
Screening CCOC(=O)CNC(=O)CSc1ncnc2c1cnn2Cc1ccccc1 returned Six1-Eya2 inh 2, PINK1 modulator 1.6%, TRPML1 ag -0.9, D2 agonist -2.9, D2 PAM 18 and TRPML1 inh 3.
